Calb biofilm kill: mixture kills Candida albicans biofilm cells; inhibition, % at 7.6 µM; 120,000 compounds, 0.02% hits; C. albicans biofilm persisters + clotrimazole, fluorescence viability; primary screen in compound mixtures of four per well;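 active = inhibition above 30.3% in the primary screen of four-compound pools, then above 30% when the compound was retested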;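 also: compounds exposed to preformed 24 h biofilms for 48 h; the number belongs to the whole pool; some results filed as inactive read as strong as hits; inactives centre near 12; 0% = biofilm with clotrimazole alone and 100% = kill control; retested singly at about 60 µM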
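Probe or stimulus – Clotrimazole 50 µg/mL co-treatment · System – C. albicans biofilms · Schedule – 24 h biofilm formation, then 48 h compound exposure, 37 °C · Evaluation – percent inhibition of biofilm viability · Technique – 2-h Alamar Blue fluorescence, 535/590 nm excitation/emission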
Active calls of the source: *. Only part of the results is shown; rates above refer to the full screens.

SMILES	Calb biofilm kill
CCN(CC)C(=S)Oc1c(Cl)cccc1Cl	18
O=C(Nc1nnc(-c2ccc(F)cc2)s1)C1CCN(S(=O)(=O)c2ccc(Cl)cc2)CC1	15
O=C(O)c1nc(-c2ccccc2)n(-c2cccc(C(F)(F)F)c2)n1	-18
Cc1cc(C)c(S(=O)(=O)n2c([N+](=O)[O-])cnc2C)c(C)c1	4
Cc1ccccc1OCC(=O)NC(Cc1c[nH]c2ccccc12)C(=O)O (centres undefined)	11
Cc1c(C=O)c2ccccn2c1C(=O)c1cccc([N+](=O)[O-])c1	13
Cc1nc(-c2ccccn2)nc(SCC(=O)c2ccccc2)c1Cl	-3
Cc1ccc(/C=C/C(=O)O)cc1S(=O)(=O)Nc1ccccc1C(=O)O	-3
C#CCNC(=O)C1=C[C@H](c2coc3ccccc3c2=O)C[C@H](OCCCCO)O1	19
O=C(c1ccc(S(=O)(=O)NCC2CCCO2)cc1)N1CCN(c2ccccc2F)CC1 (centres undefined)	16
O=C(CN1CCN(c2ccc(F)cc2)CC1)Nc1ccccc1[N+](=O)[O-]	11
O=C(O)c1cnn(-c2ccccc2)c1C(F)(F)F	4
Cn1cc(CNCc2ccccc2OCC(O)CN2CCc3ccccc3C2)cn1 (centres undefined)	6
CC1=C(C(=O)NCc2ccc(Cl)cc2)C2(CCC(C)CC2)OC1=O (centres undefined)	27
O=C(COc1ccc([N+](=O)[O-])cc1Cl)N1CCOCC1	13
COc1cc(OC)c(OC)cc1/C=N/Nc1nc2ccccc2[nH]1	19
COc1ccc([N+](=O)[O-])cc1NC(=O)Cc1ccccc1Cl	9
COC(=O)Nc1nn(-c2ccc(OC)cc2)c(=O)c(C#N)c1C	10
CC1(OC(=O)c2cccs2)C(=O)C=C2C=C3CCCN3C=C2C1=O (centres undefined)	17
O=C(N/N=C/C(Br)=C/c1ccccc1)c1cccnc1	17
N=C1C(c2nc3ccccc3s2)=C(O)CN1c1ccccc1	15
CCOC(=O)C1=C(C)NC(=O)NC1c1ccc(F)cc1 (centres undefined)	5
NNC(=O)c1sccc1OCc1ccc(Cl)cc1Cl	11
COC(=O)c1nc(-c2ccccc2)oc1N1CCOCC1	15
Cc1nn(C)cc1CNC(=O)c1cccc(F)c1	23

Following part:
SMILES	Calb biofilm kill
Cn1c(COc2ccc(Br)cc2)nnc1SC1CCc2ccccc2C1=O (centres undefined)	10
Cc1cc(N2CCN(C)CC2)n2nc(-c3ccc(Cl)cc3)nc2n1	11
CC(C)OC(=O)C(C(=O)C(F)(F)F)c1cc(NS(=O)(=O)c2ccc3ccccc3c2)c2ccccc2c1O (centres undefined)	9
CCOC(=O)COc1c(Br)cc(C2NC(=O)NC(C)=C2C(C)=O)cc1OC (centres undefined)	16
CCOc1ccc2nc(NC(=O)c3ccc(OCC4CCCO4)cc3)sc2c1 (centres undefined)	14
CCC(=O)NC(Nc1ncc(C)s1)(C(=O)OC)C(F)(F)F (centres undefined)	7
O=C1c2ccccc2NC2(CCCCC2)N1N=C1CCCCC1	1
Cc1ccc(C(NC(=O)N2CCCC2)C(Cl)(Cl)Cl)cc1F (centres undefined)	4
CCNC(=O)CSc1nc2cc([N+](=O)[O-])ccc2n1-c1cccc(C(F)(F)F)c1	16
CN(C)C(=O)CSc1cnc2ccccc2n1	17
CCN(C(=O)c1ccc(C)c(Br)c1)c1ccccc1	6
O=C(c1noc2c1CCCC2)N1CCc2c([nH]c3ccccc23)C1c1ccccn1 (centres undefined)	0
CC(=O)Nc1nc2c(s1)C(=O)NCC(C)(C)C2	18
N#C/C(=C\c1cccn1-c1ccccc1)C(=O)NC1CCCCC1	19
Nc1nc(SCc2ccc(Br)cc2)[nH]c(=O)c1-c1ccccc1	-9
Cc1cc(=O)[nH]c(N/N=C/c2ccc(C)o2)n1	7
COC(=O)C1(C)Cc2cc(OC(C)=O)c(OC(C)=O)cc2N1 (centres undefined)	8
CCc1ccc(Nc2nnc(SCC(=O)NCCN3C(=O)CSC3=O)s2)cc1	4
COc1ccc(/C=C2\C(=O)ON=C2c2cccc([N+](=O)[O-])c2)cc1	19
O=C(Nc1ccccc1)c1cc2ccccc2[nH]1	20
Cc1ccc(NC(=S)NNC(=O)c2cccc([N+](=O)[O-])c2)cc1Cl	9
Cc1c(NC(=O)CN2CCCC(C)C2)ccc2nsnc12 (centres undefined)	13
COc1ccc(OC)c(NC(=O)c2cc3oc4ccccc4c3cc2O)c1	13
COc1ccc(-c2nc(N)n(S(=O)(=O)c3ccc(C)cc3)n2)cc1	13
CCOc1ncccc1C(=O)Nc1ccccc1C(=O)NCc1ccc2c(c1)OCO2	10

(more compounds)
SMILES	Calb biofilm kill
COc1ccc(C(=O)OCC(=O)NCc2ccccc2)c(OC)c1OC	12
Cc1cccc(C)c1NC(=O)COC(=O)CCC(=O)c1cccs1	24
NC(=S)N/N=C/c1coc2ccc(F)cc2c1=O	24
CCOC1(c2ccccc2)OC(=O)c2ccccc21 (centres undefined)	7
Brc1ccc(CNCc2cccs2)cc1	5
O=C(Nc1cc(Cl)cc(Cl)c1)c1coc(=O)c(Br)c1	17
CCCCCCN1C(=O)C(O)=C(C(C)=O)C1c1ccccc1[N+](=O)[O-] (centres undefined)	-1
CN1CCN(C(=O)C2(NC(=O)NCc3ccccc3)CCCCC2)CC1	7
Cc1nn(-c2ccccc2)c(N2CCCC2)c1/C=N/NC(=O)c1cc2ccccc2cc1O	16
CC(C)C[C@H](NC(=O)NCc1ccc(F)cc1)C(=O)O	15
CCc1ccc(-n2c(SCC(=O)Nc3ccc(C(=O)O)cc3)nnc2-c2ccncc2)cc1	28
Cc1ccc(C2c3c(C)nn(-c4ccc([N+](=O)[O-])cc4)c3N=C3C(=O)Nc4ccccc4N32)cc1 (centres undefined)	11
COc1cccc(C(=O)Nc2ccc(F)cc2F)c1	12
CCOC(=O)N1CCN(C(=O)c2ccccc2NC(C)=O)CC1	4
CCCN(CCC)S(=O)(=O)c1ccc(C(=O)Nc2nc(-c3ccccc3)c(C(=O)OCC)s2)cc1	4
O=C(NCCCn1ccnc1)/C(=C\c1cccnc1)NC(=O)c1ccco1	10
COc1cc(C(=S)N2CCOCC2)cc(OC)c1OC	24
CCCNc1nc2ccccc2c(=O)[nH]1	-2
Cc1cccc(C)c1NC(=O)c1cc(-c2ccccn2)nc2ccccc12	2
Nc1ccc2nc3c(=O)n(CCc4ccccc4)c(=O)[nH]c3nc2c1	14
COc1cc(/C=N/NC(=O)Cn2nnc3ccccc32)ccc1O	14
S=C(Nc1ccccc1)Nc1ccc2cn[nH]c2c1	3
Cc1ccc(OCC(=O)NC(=S)Nc2cccc(NC(=O)c3ccccc3Cl)c2)cc1	9
O=C(COc1ccccc1[N+](=O)[O-])Nc1ccc2c(c1)OCO2	9
Cc1[nH]c2ccc(F)cc2c1CCN(Cc1cccnc1)C(=S)Nc1cccc(F)c1	3

(next part)
SMILES	Calb biofilm kill
COc1cc(/C=C(\C#N)C(=O)NCC2CCCO2)ccc1OCCC(C)C (centres undefined)	22
CO/C=C\C=C/c1nnn(-c2ccc(Cl)cc2)n1	-2
COC(=O)[C@@H]1C[C@@]2(O)[C@@H](O)[C@@H](O)[C@@H](O)C[C@H]2N1CC1CCCCC1	4
Cc1ccc(N/N=C/c2c(C)c(C#N)c(=O)n(C)c2O)cc1C	-20
CN(C(=O)COC(=O)c1cccc(NS(=O)(=O)c2ccc(F)c(F)c2)c1)C1CCS(=O)(=O)C1 (centres undefined)	-7
CN(Cc1ccccc1)C(=O)C1CCN(S(C)(=O)=O)CC1	14
Cc1ccccc1NC(=O)NC(N)=O	12
O=S(=O)(c1ccc(Br)cc1)c1cnc2ccccc2n1	19
Cc1ccc(C(=O)O)cc1N1CCCC1=O	5
CCOc1ccccc1-n1c(=S)sc2c(=O)n(-c3ccccc3)c(=S)[nH]c21	12
Cc1cc(C)nc(Nc2n[nH]c(-c3ccccc3Cl)n2)n1	21
O=c1cc(-c2ccccc2Cl)oc2ccc([N+](=O)[O-])c(O)c12	20
Cc1csc(Nc2ccc(Cl)cc2)[n+]1-c1ccc(Cl)cc1	20
Nc1ccc2nc(-c3cc(Cl)c(N)c(Cl)c3)[nH]c2c1	-7
COc1ccc(CCNC(=O)C2CCN(c3nccc(C)n3)CC2)cc1	18
Oc1cccc(C2c3[nH]c4ccccc4c3CCN2Cc2ccoc2)c1 (centres undefined)	22
Nc1cccc(-c2cc(-c3ccccc3)nc(-c3cccc(N)c3)n2)c1	12
COc1ccc(CCNC(=O)CSc2nc(O)cc(=O)[nH]2)cc1OC	19
Cc1ccc(C(=O)C2CCN(C(=S)NCC3CCCO3)CC2)cc1 (centres undefined)	17
Cc1cc(C(=O)COC(=O)CC2Sc3ccccc3NC2=O)c(C)n1-c1ccc2c(c1)OCO2 (centres undefined)	17
O=C(NCC(c1ccc(F)cc1)N1CCOCC1)c1cccc(Br)c1 (centres undefined)	8
CCOc1ccc(-c2nnc(Nc3ccc(OC)c(C(=O)N4CCCCC4)c3)c3ccccc23)cc1	3
NN/C(=C\[N+](=O)[O-])Nc1ccc(Cl)cc1	0
O=C(N/C(=C/c1ccco1)C(=O)N1CCc2ccccc21)c1ccco1	11
CCOCc1nnc(NC(=O)C2c3ccccc3Oc3ccccc32)s1	11

(cont.)
SMILES	Calb biofilm kill
N#Cc1cc2c(=O)n3ccccc3nc2n(-c2ccc(Cl)cc2)c1=O	11
O=C(Nc1ccc(C2CC2(Cl)Cl)cc1)c1ccccc1Br (centres undefined)	4
O=C(Cn1cc(C(F)(F)F)ccc1=O)N/N=C/c1ccc(Cl)c(Cl)c1	9
CCCc1ncc(C(O)(c2ccccc2)c2ccc(C)cc2)n1C (centres undefined)	17
Cc1ccc(-n2c(Cl)c(Cl)nc(Cl)c2=O)cc1	7
COC(=O)[C@H](C)[C@@H]1C[C@@]1(C)[C@@H](NC(=O)OCc1ccccc1)c1ccccc1	17
Cc1ncccc1C(=O)N1CCCC(C(=O)c2ccc3c4c(cccc24)CC3)C1 (centres undefined)	22
Cc1ccc(CNC(=O)c2sc3ccc(S(=O)(=O)N4CCCCC4)cc3c2N)cc1	14
Cc1ccc(C(=O)NC(C)c2ccccc2)cc1Br (centres undefined)	14
Cc1cccc(-c2nnc(SCC(=O)N3c4ccccc4CCc4ccccc43)n2C)c1	11
CN(C1CCCCC1)S(=O)(=O)c1ccc(NC(=O)Cn2nc(-c3ccc(F)cc3)ccc2=O)cc1	8
COc1ccc2c(c1)Sc1ccccc1N2	12
CSC[C@@H]1NC(=S)N(c2ccc(C)cc2)C1=O	20
Fc1ccc(Nc2nc(-c3ccncc3)nc3ccccc23)cc1	12
Cc1cc(-c2nnc3n2N=C(c2ccc(F)cc2)CS3)n[nH]1	7
Cc1ccc(-c2csc(NC(=O)c3ccc(C)o3)n2)cc1	5
Cc1cc(C)cc(N(CC(=O)NC2CCCC2)C(=O)C2(C)CC(=O)N=C3C=CC=CN32)c1 (centres undefined)	5
CC(=O)OCC1=C(C(=O)O)N2C(=O)C(NC(=O)c3ccc(COc4cccc(Cl)c4Cl)o3)C2SC1 (centres undefined)	21
COc1ccc(/C(N)=N/OC(=O)CCc2ccccc2)cc1OC	22
Cc1c(Cc2ccc3c(c2)OCO3)sc(NC(=O)c2ccc3ccccc3c2)c1C(N)=O	14
Cc1[nH]n(-c2ncc(-c3ccccc3)s2)c(=O)c1C(c1ccc(Cl)cc1)C(C#N)C#N (centres undefined)	18
COCCNC(=O)/C(C#N)=C/c1cc(C)n(-c2ccc(C)cc2)c1C	15
COC/C=C/C1=CC2=CC(=O)C(C)(OC(=O)c3cnc4ccccc4n3)C(=O)C2=CN1CCCOC(C)C (centres undefined)	18
N/C(=N\OC(=O)C(c1ccccc1)c1ccccc1)c1ccccn1	-4
CC(C)(C)NC(=O)N1CCC(CO)(Cc2ccccc2Cl)CC1	7
CCOC(=O)N1CCN(C(=O)c2cn(CC)c3ccc(S(=O)(=O)N4CC(C)CC(C)C4)cc3c2=O)CC1 (centres undefined)	17

Given in CSV form: entries from further up
mol,Calb biofilm kill
Cc1ccc(C(=O)NC(C)c2ccccc2)cc1Br (centres undefined),14
Cc1cccc(-c2nnc(SCC(=O)N3c4ccccc4CCc4ccccc43)n2C)c1,11
CN(C1CCCCC1)S(=O)(=O)c1ccc(NC(=O)Cn2nc(-c3ccc(F)cc3)ccc2=O)cc1,8
COc1ccc2c(c1)Sc1ccccc1N2,12
CSC[C@@H]1NC(=S)N(c2ccc(C)cc2)C1=O,20
Fc1ccc(Nc2nc(-c3ccncc3)nc3ccccc23)cc1,12
Cc1cc(-c2nnc3n2N=C(c2ccc(F)cc2)CS3)n[nH]1,7
Cc1ccc(-c2csc(NC(=O)c3ccc(C)o3)n2)cc1,5
Cc1cc(C)cc(N(CC(=O)NC2CCCC2)C(=O)C2(C)CC(=O)N=C3C=CC=CN32)c1 (centres undefined),5
CC(=O)OCC1=C(C(=O)O)N2C(=O)C(NC(=O)c3ccc(COc4cccc(Cl)c4Cl)o3)C2SC1 (centres undefined),21
COc1ccc(/C(N)=N/OC(=O)CCc2ccccc2)cc1OC,22
Cc1c(Cc2ccc3c(c2)OCO3)sc(NC(=O)c2ccc3ccccc3c2)c1C(N)=O,14
Cc1[nH]n(-c2ncc(-c3ccccc3)s2)c(=O)c1C(c1ccc(Cl)cc1)C(C#N)C#N (centres undefined),18
COCCNC(=O)/C(C#N)=C/c1cc(C)n(-c2ccc(C)cc2)c1C,15
COC/C=C/C1=CC2=CC(=O)C(C)(OC(=O)c3cnc4ccccc4n3)C(=O)C2=CN1CCCOC(C)C (centres undefined),18
N/C(=N\OC(=O)C(c1ccccc1)c1ccccc1)c1ccccn1,-4
CC(C)(C)NC(=O)N1CCC(CO)(Cc2ccccc2Cl)CC1,7
CCOC(=O)N1CCN(C(=O)c2cn(CC)c3ccc(S(=O)(=O)N4CC(C)CC(C)C4)cc3c2=O)CC1 (centres undefined),17

Screens: PubChem, PCMD
